Source: PubChem BioAssay
FGF22 binding – FGF22 (human) thermal shift binding; Q9HCT0; recombinant FGF22 thermal shift, SYPRO orange fluorescence; percent of sucrose octasulfate shift, DMSO zero; calls only at 9.99 µM; actives 1.5% (n = 340,000);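 active = melting point raised past a set limit in the mean and every replicate; inconclusive = no clear call; three in four hits are not shown here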
Target sequence (Q9HCT0 whole entry, looked up): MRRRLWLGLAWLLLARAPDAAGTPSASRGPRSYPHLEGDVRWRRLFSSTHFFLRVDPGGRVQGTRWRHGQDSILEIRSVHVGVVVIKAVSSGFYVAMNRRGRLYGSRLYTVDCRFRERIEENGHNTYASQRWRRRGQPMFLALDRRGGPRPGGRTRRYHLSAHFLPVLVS
Ecoli rRNA inh – inhibits bacterial ribosomal RNA function over humanized ribosomes. E. coli WT GFP vs humanized-ribosome RFP mutants, fluorescence, 24 h; active compounds read low; DMSO median 0, no signal -100. GFP signal change (wild-type ribosome), % (no concentration beside the values). actives 1.6% (n = 350,000);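 active = significant combined selectivity score with lowered wild-type GFP, culture density cut under 30%, mutant RFP and density less affected; inactive = any of these conditions unmet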; note: one replicate is shown; some compounds called inactive have numbers as strong as hits
ALR inh – inhibitors of human sulfhydryl oxidase ALR; AID 485317; purified ALR, DTT oxidation, H2O2 HRP-luminol luminescence; inhibition, % (concentration not given with the values); P55789; actives 3.8% (n = 290,000);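 active = mean and each replicate at 75% or more; inconclusive = only one of the two met; inactive = neither met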;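 note: stock transfer was 7.5 nL into about 7.5 µL; 0% = neutral wells and 100% = wells with inactivated enzyme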
Target sequence (P55789 whole entry, looked up): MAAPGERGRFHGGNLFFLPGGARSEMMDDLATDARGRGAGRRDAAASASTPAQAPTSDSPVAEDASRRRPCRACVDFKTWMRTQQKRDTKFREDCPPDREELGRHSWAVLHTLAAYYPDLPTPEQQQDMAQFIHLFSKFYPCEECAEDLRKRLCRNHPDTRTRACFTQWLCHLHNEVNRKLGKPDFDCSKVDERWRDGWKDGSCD
HNF4A DNA FP – change in binding of human HNF4 alpha to DNA; P41235; HNF4a-FITC DNA binding, fluorescence polarization, 1 h; activity change, % at 10 µM; actives 0.3% (n = 360,000); in the data active = activity change above about 30%, passing the limit was not always enough;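 note: controls were the assay level and a saturating level of protein; the project sought stronger binding though the title names inhibitors; some compounds called inactive have numbers as strong as hits; positive values seem to mean higher polarization but the record does not say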
Target sequence (P41235 whole entry, looked up): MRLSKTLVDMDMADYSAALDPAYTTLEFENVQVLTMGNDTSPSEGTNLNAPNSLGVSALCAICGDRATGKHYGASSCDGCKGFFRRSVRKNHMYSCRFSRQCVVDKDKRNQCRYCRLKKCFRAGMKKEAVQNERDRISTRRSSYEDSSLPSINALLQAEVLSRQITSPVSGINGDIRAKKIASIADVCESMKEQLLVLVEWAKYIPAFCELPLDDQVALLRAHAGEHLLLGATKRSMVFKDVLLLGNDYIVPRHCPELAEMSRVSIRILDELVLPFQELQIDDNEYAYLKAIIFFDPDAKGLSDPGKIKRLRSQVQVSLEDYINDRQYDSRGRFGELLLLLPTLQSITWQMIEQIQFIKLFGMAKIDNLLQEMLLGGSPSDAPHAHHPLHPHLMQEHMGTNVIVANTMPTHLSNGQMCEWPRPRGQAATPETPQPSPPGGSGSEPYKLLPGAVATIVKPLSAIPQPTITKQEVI
MLL AF4-AF9 inh – blocks AF4 peptide binding to human AF9. inhibition, % at 10 µM. actives 0.47% (n = 350,000). P42568. AlphaScreen, biotin-AF4 peptide binding to FLAG-AF9. AID 651704;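 active = every replicate reaching a set inhibition limit, whatever the replicate mean, cut at about 25% in these data; inconclusive = mean inhibition reaches that limit but some replicates miss it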;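 note: 0% = plate neutral control median and 100% = total signal loss; the record names both 10 and 1 µM as test concentration; the first replicate is given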
Vif TR-FRET – HIV-1 Vif–A3G interaction blockers – biochemical, TR-FRET, GST-Vif 1-94, biotin-A3G peptide, dose response retest, primary screen (AID 1117319); TR-FRET GST-Vif / biotin-A3G peptide binding; higher % means a stronger effect; test concentration not given here; strong numbers were not always called active; inhibition, %, or IC50 in µM where a hit was titrated; actives 0.57% (n = 260,000);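 active = above the screen mean plus three standard deviations and confirmed in dose response; inconclusive = results disagree or hit not tested in dose response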;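 note: Vif residues 1-94 fused to GST binding biotinylated APOBEC3G peptide 110-148; 0% = full assay without inhibitor and 100% = GST in place of GST-Vif; retest series ran down from 100 µM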
E coli growth – E. coli growth inhibition; actives 0.21% (n = 330,000); OD600 absorbance (test concentration not listed); Escherichia coli growth, OD600, 23 h; active compounds read low;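 active = OD600 absorbance below the run mean of sample wells minus 3.6 SD, in any replicate, cut at about 0.56 in these data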;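 note: stock transfer was 300 nL into about 60 µL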
Ecoli rRNA inh OD600 – recorded beside Ecoli rRNA inh, whose call it bears; OD600 change, %; measured here: OD600 growth;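 optical density of the mix in the first replicate; 0 = DMSO median and -100 = no signal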
Ecoli rRNA inh RFP – also measured in Ecoli rRNA inh; calls as there; RFP signal change, %; measured here: RFP humanized mutant strains;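 first replicate; 0 = DMSO median and -100 = no signal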
Starred values were filed as active, the others as inactive; i = inactive; ? = inconclusive; . = not tested or not shown; & = joins results of further samples. The list is partial; count on the stated rates, not on these rows.

SMILES	FGF22 binding	Ecoli rRNA inh	Ecoli rRNA inh OD600	Ecoli rRNA inh RFP	ALR inh	HNF4A DNA FP	MLL AF4-AF9 inh	Vif TR-FRET	E coli growth
CCC1CCc2c(sc(NC(=O)C3c4ccccc4Oc4ccccc43)c2C(N)=O)C1 (configuration not stated)	.	.	.	.	2.7	0.7	.	13.7%	0.727
CCNC(=O)C1(C)CCCN(C(=O)c2nc(C)oc2C)C1 (configuration not stated)	i	10.7	7.3	0.9	.	-0.8	-0.2	.	.
Cc1ccc(-n2ncc3c2CC(C)(C)CC3NC(=O)c2ccccn2)cc1 (configuration not stated)	i	-23.6	-28.9	-4.0	-1.2	4.4	2.5	.	0.669
CCn1nnc(-c2ccccc2NC(=O)c2cccc(-n3cnnn3)c2)n1	i	7.0	-6.3	0.1	0.3	-0.2	-11.6	24.2%	0.657
CN(C)c1ccc(C(=O)C(=O)N2CCN(c3ccccc3)CC2)cc1	i	-14.1	-17.4	4.1	.	-2.1	0.5	.	.
CCN(c1ccccc1)S(=O)(=O)c1cc(C(=O)Nc2ccc(F)c(F)c2)ccc1F	i	.	.	.	.	1.4	-8.5	1.8%	0.713
CCn1cc([N+](=O)[O-])c(C(=O)N2CCCc3ccccc32)n1	i	9.8	6.9	0.8	.	1.5	-2.0	.	0.668
O=C(OCc1ccc(Cl)c(Cl)c1)c1cccnc1Cl	i	2.4	1.8	-1.8	-6.2	2.0	-1.0	.	0.643
CCS(=O)(=O)N1CCCCN2[C@H](CO)[C@@H](c3ccc(-c4ccccc4C)cc3)[C@@H]2C1	i	-24.8	-59.0	4.1	.	.	-4.2	.	.
CC(C)C[C@H]1CN=C(Nc2ccccc2)N1CCC1CCCC1	i	-20.5	-49.3	9.5	2.0	6.2	-27.3	.	.
CNC[C@H]1OCCCC[C@H](C)Oc2ccc(NC(=O)Nc3ccc(F)cc3)cc2C(=O)N([C@H](C)CO)C[C@H]1C	i	9.1	6.5	1.4	.	.	-0.1	.	.
Cc1ccc(C)c(S(=O)(=O)N/N=C/c2ccc(N(C)C)cc2)c1	i	0.1	-18.7	0.0	98.9*	1.6	-16.0	-8.3%	.
CC1CCCCN1C(=O)C1CCCCN1S(=O)(=O)c1cccc([N+](=O)[O-])c1 (configuration not stated)	i	8.7	-0.4	-1.7	-13.2	10.7	-0.6	12.0%	0.723
CNC(=S)N(C)c1ccccc1	i	-3.4	7.8	-3.4	1.9	2.0	14.4	-10.0%	0.684
N#CCC(=O)Nc1ccc(C(=O)OCC(=O)NNC(=O)c2cccs2)cc1	.	9.4	8.7	15.5	-2.5	6.6	0.3	-4.8%	0.625
COCCC1CCCCN1C(=O)c1ccc(OC2CCN(C(C)=O)CC2)c(OC)c1 (configuration not stated)	i	10.8	14.2	-0.9	-7.2	5.5	0.3	.	0.701
O=C(O)CCn1c(=O)[nH]c2ccccc2c1=O	i	13.4	16.3	-1.7	-29.0	0.0	-8.2	7.3%	0.716
COc1ccccc1C1=CC(=O)C[C@H](c2ccc(Cl)cc2)C1	i	-25.2	-28.9	-14.5	-1.3	7.2	-1.5	.	.
COc1ccc(OCCC(=O)OCc2c(C)noc2C)cc1	.	.	.	.	-2.1	-1.6	.	23.2%	0.734
COc1ccc(CN(C)C[C@@H]2Oc3ccc(NC(=O)Nc4ccc5c(c4)OCO5)cc3C(=O)N([C@H](C)CO)C[C@H]2C)cc1	i	-1.1	-2.2	0.8	.	.	12.6	.	.
COc1ccc(-c2noc(C3CCCN(C(=O)c4ccccc4C)C3)n2)cc1 (configuration not stated)	i	-30.5	-29.1	-2.5	32.9	0.1	1.0	2.4%	.
COc1ccc(SC2=C[C@@]3(O)CC[C@@H](O)[C@@](Sc4ccc(OC)cc4)(C2=O)[C@H]3O)cc1	i	0.8	2.1	-3.0	.	-0.1	-0.1	.	.
CC(=O)c1ccc(NC(=O)COC(=O)CCC2CCCC2)cc1	i	2.7	12.7	4.4	-1.5	-0.7	-2.1	-10.8%	0.68
Cc1cc(=O)oc2c3c(cc(OCC(=O)NCc4ccco4)c12)OC(C)(C)CC3	i	-26.1	-28.5	-15.2	-2.5	-0.6	4.0	.	0.703
CC(C)(C)[C@H]1C=C(C(=O)N2CCN(Cc3ccc4c(c3)OCO4)CC2)O[C@@H](OCc2ccc(CO)cc2)C1	i	.	.	.	.	1.8	7.8	.	.
C[C@@H]1CCCCO[C@@H](CN(C)C)[C@@H](C)CN([C@@H](C)CO)C(=O)c2cc(NS(=O)(=O)c3ccccc3)ccc2O1	i	2.3	0.5	0.3	.	.	-4.0	.	.
N#CCCN(C(=O)CSc1ccc2c(c1)OCCO2)c1ccccc1	.	.	.	.	88.5*	3.1	.	0.1%	0.731
Cc1ccc(NC(=O)c2ccc3c(c2)N(CC(=O)NC(C)C)C(=O)C(C)(C)O3)cc1	i	8.1	17.8	2.3	-1.2	-1.7	1.8	3.7%	0.682
CCNC(=S)NNC(=O)c1cc(C)on1	.	.	.	.	10.7	-1.5	.	8.6%	0.745
CC1CCN(S(=O)(=O)c2ccc3c(c2)c(=O)c(C(=O)NC2CCCC2)cn3C)CC1	.	.	.	.	-8.5	2.2	.	-0.2%&-8.1%	0.659
CC(=O)NC1C(OC(=O)/C=C/c2ccccc2)OC(COC(C)=O)C(OC(C)=O)C1OC(C)=O (configuration not stated)	i	2.5	6.6	1.1	-5.2	2.4	-2.5	-0.3%	0.685
CCC(=O)c1ccc(OCC(=O)Nc2ccccc2N2CCCCC2)cc1	i	13.8	12.6	-2.6	-12.2	-1.2	-4.9	.	0.749
NC(=O)c1ccc2c(=O)n3c(-c4cccs4)csc3nc2c1	i	-1.9	1.2	-10.9	-12.6	-1.1	-2.9	-2.9%	0.662
CC(C)(C)n1nnnc1C(c1ccc(Cl)cc1)N1CCCc2ccccc21 (configuration not stated)	.	.	.	.	.	2.2	.	4.9%	0.703
CCOc1ccc(Cl)cc1S(=O)(=O)N1CCC(C(=O)NCc2ccccn2)CC1	i	1.9	1.2	-1.3	-2.0	-0.1	-4.2	.	0.683
Cc1ccc(C(=O)CN(C(=O)c2ccc(Cl)cc2)N2C(=O)c3ccccc3C2=O)cc1	.	.	.	.	-2.1	4.5	.	-7.0%	0.678
C[C@@H]1CN([C@@H](C)CO)C(=O)c2cc(NC(=O)Cc3ccccc3)ccc2O[C@@H](C)CCCCO[C@@H]1CN(C)C(=O)CCC(F)(F)F	i	-1.8	1.2	0.0	.	.	-4.5	.	.
Nc1ncnc2c1ncn2[C@@H]1O[C@H](CNC(=O)[C@H](N)Cc2cscn2)[C@@H](O)[C@H]1O	i	1.7	-0.4	-2.0	.	1.7	-0.4	.	0.652
COC(=O)/C=C/CSC1=N/C(=C/c2ccc(-n3cncn3)cc2)C(=O)N1	.	.	.	.	-16.1	2.0	.	-6.5%	0.726
COCCNC(=O)C[C@@H]1C[C@@H]2c3cc(NC(=O)C4CCC4)ccc3O[C@@H]2[C@H](CO)O1	i	4.8	5.2	-1.6	.	.	-1.8	.	.
COc1ccc(NS(=O)(=O)c2cc(NC(=O)c3sccc3C)ccc2N2CCOCC2)cc1	i	-4.8	-12.2	8.3	-1.5	-0.7	-3.1	-7.3%	0.707
Cc1onc(-c2ccccc2)c1C(=O)n1nnc2ccccc21	.	.	.	.	12.8	-0.9	.	-1.4%	0.684
COc1ccc(C(C(=O)NCC2CCCO2)N(C(=O)CNC(=O)c2ccco2)c2cc(C)cc(C)c2)cc1OC (configuration not stated)	i	-0.2	8.8	0.9	-1.2	0.3	-0.2	-5.8%	0.689
Cc1ccc(OCC(=O)OCC(=O)Nc2ccc3c(c2)OCO3)cc1C	i	3.8	10.5	0.0	-3.7	-6.8	1.7	.	0.717
Cc1ccc(NC(=O)CN2CCc3cc4c(cc3C2)OCCCO4)cc1C	i	1.8	6.3	2.4	3.2	-3.5	-2.4	.	0.631
CC1C2C(c3ccccc3)N(C)C(=O)N(C)C2N(C)C(=O)N1C (configuration not stated)	.	.	.	.	-14.3	-12.5	.	-0.9%	0.761
CCn1cc(C(=O)N2CCN(c3ccc(C(C)=O)cc3)CC2)c2cc(OC)c(OC)cc2c1=O	i	-5.5	-3.2	-1.2	-1.1	-4.1	-11.5	-4.2%	0.731
N#C[C@@H]1[C@H](c2ccc(-c3cncnc3)cc2)[C@H](CO)N1C(=O)CN1CCOCC1	i	-0.1	7.9	-0.3	.	.	-2.0	.	.
O=C(NCC12CC3CC(CC(C3)C1)C2)c1nn2c(c1Cl)NC(c1ccco1)CC2C(F)(F)F (configuration not stated)	.	.	.	.	61.3	2.6	.	20.0%	0.734
O=C(O)c1cc(-c2ccco2)nc2ccccc12	i	8.3	3.2	-1.9	55.9	-15.9	-9.0	?	0.713

(more compounds)
SMILES	FGF22 binding	Ecoli rRNA inh	Ecoli rRNA inh OD600	Ecoli rRNA inh RFP	ALR inh	HNF4A DNA FP	MLL AF4-AF9 inh	Vif TR-FRET	E coli growth
COc1cc(OC)cc(C(=O)OCC(=O)NCCCc2ccccc2)c1	i	3.9	10.5	3.5	-5.6	2.5	-2.5	4.8%	0.703
O=C(NCCN1CCOCC1)c1ccc(NC(=O)c2ccc(Br)o2)cc1	i	7.8	1.1	2.2	.	1.0	-5.2	.	.
COc1cc(C(=O)NCCOC(=O)c2cccc(N(C)C)c2)cc(OC)c1OC	i	-4.2	-13.0	4.6	.	-2.0	1.9	3.3%	0.665
COc1ccc(CCNC(=O)COC(=O)C2CC2)cc1OC	i	7.1	12.0	-0.8	-0.7	-0.3	-0.4	1.1%	0.681
Cc1ccc(C(=O)NCCCNC(=O)c2ccccc2F)cn1	i	4.9	12.5	3.6	4.0	2.4	0.4	.	0.607
O=C(Cc1ccc(F)cc1)N1CCC(CC2CC(c3ccc(Cl)cc3)=NO2)(C(=O)NCC2CCCCC2)CC1 (configuration not stated)	i	10.4	10.8	8.9	4.4	-1.4	1.2	.	.
COc1ccccc1/C=C/C(=O)OCC(=O)NC1CCS(=O)(=O)C1 (configuration not stated)	i	1.8	1.7	-1.2	-6.4	0.3	-1.4	5.0%	0.699
CCOc1ccccc1OCCOCCOc1c(Cl)cccc1Cl	.	.	.	.	.	-1.9	.	?	0.658
COc1cccc(OCC(O)CN2CCN(CCN3C(=O)c4cccc5cccc(c45)C3=O)CC2)c1 (configuration not stated)	i	-11.5	-11.3	2.9	.	3.2	16.8	9.6%	0.633
O=C(Cn1nc(-c2ccccc2)ccc1=O)N1CCCCC1	i	5.9	13.1	-0.9	-2.9	2.8	-1.6	.	0.683
C=CC[C@H](CC(=O)OC(C)(C)C)C(=O)OC[C@@H]1CCCN1C(=O)[C@@H](CC=C)CC(=O)N[C@H](CO)Cc1ccccc1	i	0.5	18.0	15.2	-5.9	2.9	-5.0	.	.
Cc1n[nH]c(=O)n(N=Cc2cccs2)c1=O	i	9.3	4.6	4.3	.	-1.4	-1.0	0.2%	.
CC(C)NC(=O)N(C)C[C@H]1Oc2cc(C#C[C@H](C)O)ccc2S(=O)(=O)N([C@@H](C)CO)C[C@H]1C	i	2.2	3.6	-2.0	.	.	-3.4	.	.
CC(=O)Nc1ccc(NC(=O)CSc2nc(=O)n(Cc3ccncc3)c3c2CCC3)cc1	i	5.1	5.3	-0.8	48.5	-1.9	-4.2	-3.9%	0.654
